High-throughput results: PubChem, National Center for Advancing Translational Sciences (NCATS)
NPR1 antag – antagonists of human natriuretic peptide receptor Npr1; Potency, µM (series often up to 46.3 µM), for the others: top-dose activity change, negative = inhibition, most hits filed as inhibitors; HEK293 hNpr1 GloSensor cGMP, ANP-stimulated luminescence; P16066; actives 1.6% (n = 76,000); active = well fitted inhibition curve with a large enough effect; inconclusive = small, poorly fitted or top-dose-only effect; inactive = no such curve, though single readings can be large or run the other way;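 note: nearly all actives have a fitted effect of over 60% in size; nearly all hits also lower the signal before the agonist is added; a reference antagonist and vehicle were the controls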
Target sequence (P16066 whole entry, looked up): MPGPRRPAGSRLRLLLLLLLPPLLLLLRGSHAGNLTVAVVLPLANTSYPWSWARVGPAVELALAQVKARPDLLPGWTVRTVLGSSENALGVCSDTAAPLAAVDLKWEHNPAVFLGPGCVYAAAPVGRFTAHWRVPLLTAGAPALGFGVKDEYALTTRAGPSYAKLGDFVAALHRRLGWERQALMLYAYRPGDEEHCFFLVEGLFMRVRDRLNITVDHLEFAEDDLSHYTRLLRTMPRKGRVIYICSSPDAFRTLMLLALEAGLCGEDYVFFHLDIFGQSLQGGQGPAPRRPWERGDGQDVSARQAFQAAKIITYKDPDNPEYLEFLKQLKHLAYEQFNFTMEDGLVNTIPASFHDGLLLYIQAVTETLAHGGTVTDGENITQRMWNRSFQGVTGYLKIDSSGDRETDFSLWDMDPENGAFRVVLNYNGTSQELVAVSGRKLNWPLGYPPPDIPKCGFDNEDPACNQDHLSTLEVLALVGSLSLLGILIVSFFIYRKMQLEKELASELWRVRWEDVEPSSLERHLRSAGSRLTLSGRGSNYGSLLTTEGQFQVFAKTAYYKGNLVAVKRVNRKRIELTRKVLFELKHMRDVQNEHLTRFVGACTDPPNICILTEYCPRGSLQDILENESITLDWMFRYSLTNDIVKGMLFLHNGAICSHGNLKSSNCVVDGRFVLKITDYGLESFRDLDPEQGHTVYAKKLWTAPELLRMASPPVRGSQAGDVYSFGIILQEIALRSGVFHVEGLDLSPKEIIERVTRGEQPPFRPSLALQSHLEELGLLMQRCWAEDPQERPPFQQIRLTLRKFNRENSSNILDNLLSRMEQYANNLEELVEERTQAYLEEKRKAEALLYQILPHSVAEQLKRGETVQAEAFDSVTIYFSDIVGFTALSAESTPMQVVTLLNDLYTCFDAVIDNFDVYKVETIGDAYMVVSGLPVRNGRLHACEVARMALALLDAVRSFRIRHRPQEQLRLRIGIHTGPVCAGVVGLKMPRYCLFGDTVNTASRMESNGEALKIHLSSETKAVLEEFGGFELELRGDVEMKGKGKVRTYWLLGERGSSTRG
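Compound pre-incubated 30 min at room temperature on GloSensor-loaded HEK293 cells stably carrying hNpr1 and the pGS-40F cGMP biosensor. Stimulation uses hNppA at 0.1 nM final; luminescence is taken at baseline and 20 min post-agonist.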
* = called active by the depositor; ? = inconclusive; & = joins results of further samples; [ ] = dose if it differs, or a comment. % is set by controls: 0 for no effect and ±100 for the full control effect; potency is the fitted concentration of half-maximal effect. This is a subset; count on the stated rates, not on these rows.

NPR1 antag | mol
1% | CCN1C(=O)C2(CCN(S(=O)(=O)c3ccc4c(c3)CCC4)CC2)c2ccccc21
-1% | CC(C)COc1cc(=O)n2c(c1C(=O)NCC1CC1)CCCCC2
1% | O=C(c1nccnc1C(=O)N1CCC2(CCCNC2)C1)N1CCCCC1 (centres undefined)
1% | CCn1ncc(N2CCCC(CC(=O)N3CCCCCC3)C2)cc1=O (centres undefined)
-4% | O=C1Nc2ccccc2CC12CCN([S+](=O)([O-])c1cccs1)C2 (centres undefined)
? | Cc1nc(CN2C[C@H](C(=O)Nc3cccc(Cl)c3)C[C@@H]2c2ccc(F)cc2)cs1
-18%[70.6 µM] | CS(=O)(=O)N1CCOC[C@H](Oc2ccc(C(F)(F)F)cc2)C1
1% | CCn1nccc1C(=O)N1CCC(OCC2CC2)C1 (centres undefined)
3% | Cc1noc(C)c1C(=O)N1CCC(N2C(=O)C3(CCCC3)C2c2ccccc2)CC1 (centres undefined)
6% | O=C(CC1CCCCC1)N1CCC2(CC1)NC(=O)N(c1ccccc1)N2
4%[70.6 µM] | NC(=O)CCNC(=O)C1=C[C@@H](NC(=O)NC2CCCCC2)[C@@H](O)[C@H](O)C1
-6% | CCc1noc(-c2cn(C3CCN(C(=O)c4ccco4)C3)nn2)n1 (centres undefined)
-2%[70.6 µM] | CN(C)CCN(C)C(=O)c1ccc(-c2ncc3cnc(-c4ccccc4)cn23)cc1
-10% | COc1cc(OC)cc(C(=O)N2CCCC(n3cc(-c4nc(-c5ccccc5)no4)nn3)C2)c1 (centres undefined)
? | O=C(Nc1ccc(Oc2ccccc2)cc1)N[C@H]1CO[C@H]2[C@@H]1OC[C@H]2OC(=O)Nc1cccc2ccccc12
0% | COc1ccc(C(=O)N2CCC3(CC2)OCC(C(=O)N2CCOCC2)N3C(=O)c2ccccc2)cc1 (centres undefined)
-2% | COc1cccc(CN2CCNC(=O)C2CC(=O)N2CCC(O)CC2)c1OC (centres undefined)
-16%[70.6 µM] | c1ccc(Oc2ccccc2-c2cc(-c3cn[nH]c3)c3cncn3c2)cc1
-10% | CCOC(=O)C1CCN(C(=O)c2cc(Cn3ccnc3C(C)C)[nH]n2)CC1
-23% | O=C(NCCc1ccncc1)C1c2ccccc2C(=O)N(c2ccccc2)C12CCCCC2 (centres undefined)
0% | COc1cc(OC)c(NC(=O)CCn2ccn3nc4c(c3c2=O)CCCC4)cc1Cl
-14%[70.6 µM] | Cc1ccc(-c2cnc3n[nH]c(-c4ccccc4)c3n2)cc1
-11% | Cn1cc(CN2CCCC(COc3ccccc3C(=O)N3CCOCC3)C2)c2ccccc21 (centres undefined)
-2% | COc1cc(NC(=O)N2C[C@@H](F)C[C@H]2C(=O)N2CCc3ccccc3C2)cc(OC)c1
-22% | O=C(NCC1CC1)c1ccc(Cn2ccn3nc4c(c3c2=O)CCCC4)cc1

Ordered by the number under NPR1 antag (smallest number first): 3 of the compounds above
NPR1 antag | mol
-6% | CCc1noc(-c2cn(C3CCN(C(=O)c4ccco4)C3)nn2)n1 (centres undefined)
-1% | CC(C)COc1cc(=O)n2c(c1C(=O)NCC1CC1)CCCCC2
3% | Cc1noc(C)c1C(=O)N1CCC(N2C(=O)C3(CCCC3)C2c2ccccc2)CC1 (centres undefined)

The list continues:
NPR1 antag | mol
0% | CN(C)[C@@H]1CN(C(=O)c2ccc(C#N)cc2)C[C@H]1CO
0%&0%[70.6 µM] | N#CC1CCN(C(=O)C2CN(c3cccc(Cl)c3)C(=O)N2)CC1 (centres undefined)
5% | COc1cccc2c1OCC(CNC(=O)CCn1nnc3ccccc31)C2 (centres undefined)
5% | COc1cccc(CC(=O)N2CC3CC(C2)[C@H]2CCCC(=O)N2C3)c1 (some centres undefined)
? | COCc1cc(C[C@@H]2C[C@H](NC(=O)CC(C)(C)C)C2(C)C)no1
-6% | COc1ccc(-c2cc(N3CCCN(C(=O)c4ccc(Br)cc4)CC3)n[nH]2)cc1
-4% | O=C(NCc1ccc(C(F)(F)F)cc1)[C@@H]1Cc2nc[nH]c2CN1Cc1ccc([N+](=O)[O-])cc1
-22% | CCCN1C(=O)Cc2ccccc2C1C(=O)NCc1cccc(OC)c1OC (centres undefined)
-1% | COc1cc(Cl)c(C)cc1NC(=O)CN1C(=O)NC2(CCS(=O)(=O)CC2)C1=O
1% | CN1CCC2(C1)CN(Cc1ccccc1)c1ccc(C(=O)NCCOc3ccccc3)cc12 (centres undefined)
? | COC(=O)[C@@H]1Cc2ncn(Cc3ccc(OC)cc3)c2CN1Cc1ccc(F)cc1
-20% | CCC1Oc2ccc(NC(=O)c3ccc(C#N)cc3)cc2CN(Cc2ccccc2F)C1=O (centres undefined)
-2% | COc1ccccc1N1CCN(C(=O)C2CC(=O)N(c3n[nH]c4cccc(F)c34)C2)CC1 (centres undefined)
-2% | COc1cccc(OCc2cc(C(=O)NC3CCOC(C)(C)C3)n[nH]2)c1 (centres undefined)
10% | COCCn1ncc(N2CCC(C(=O)NCc3nc4ccccc4n3C)C2)cc1=O (centres undefined)
0% | O=C(N[C@@H]1CCN(Cc2nc3c(s2)CCCC3)C[C@H]1O)c1ccccn1
2% | O=C(NCc1nc(-c2cccc(F)c2)c(-c2ccccn2)[nH]1)[C@@H]1CCCCN1
6% | CCn1ccc(C(=O)N2CCCC(c3noc(COc4ccccc4)n3)C2)n1 (centres undefined)
1% | O=C(c1ccc(F)cc1Cl)N1C[C@@H](CO)[C@H](c2ccccn2)C1
-4% | Cn1cnc(C(=O)N2CCC(F)(c3nc(-c4ccncc4)no3)CC2)c1
7% | O=C(O)C[C@@H]1CCN(C(=O)C2CCCC2)C[C@@H]1CCN1CCC(n2c(=O)[nH]c3ccccc32)CC1
2% | CC(=O)N1CCN(c2ncccc2CNC(=O)C2COc3ccccc3C2)CC1 (centres undefined)
-8% | COc1ccc(Cl)cc1NC(=O)c1cc(-c2ccc[nH]2)n[nH]1
5% | O=C(CCC[C@@H]1[C@H]2CCCN3CCC[C@@H](CN1Cc1ccccc1)[C@@H]23)NCc1ccncc1
3% | CCOc1ccc(CN2C(=O)C3(CCOCC3)CC2c2nnnn2C(C)(C)C)cc1 (centres undefined)
0% | O=C1NCCCCCN(C(=O)NCc2ccc(F)cc2)[C@H]2CCC[C@@H]12
-2% | CC(C)=CCC1(C(=O)O)CCCN(C(=O)Cc2c[nH]c(=O)n(C)c2=O)C1 (centres undefined)
1% | Cc1ccc(NC(=O)Cn2nc3n(c2=O)CCCC3)cc1Cl
5% | Cc1cccn2c(CC(=O)N3Cc4[nH]cnc4CC3C(=O)O)cnc12 (centres undefined)
25%[70.6 µM] | CN(Cc1ccccc1)C1CCc2ccccc21 (centres undefined)
-16% | O=C(N[C@@H]1CN(Cc2ccccc2)C[C@H]1CO)c1ccnnc1
0% | Cc1ccc(CC(=O)N2C[C@@H](COc3ccccc3)[C@H](C(N)=O)C2)cc1
-5% | O=C(COc1ccccc1)N1CCCN(c2cc(-c3ccc(Br)cc3)[nH]n2)CC1
5% | CCNC(=O)N1CCc2c(c(-c3nncn3-c3ccccc3)nn2C)C1
-12% | O=C(NCc1ccc(F)cc1F)C1CCN(C(=O)c2ncn3c2COC(c2ccc(F)cc2)C3)CC1 (centres undefined)
6% | COc1ccc(C(=O)N2CCC(n3cc(-c4nc(C)no4)nn3)C2)cc1 (centres undefined)
1%[70.6 µM] | O=C(C[C@@H]1O[C@H](CNC(=O)C2CC2)[C@@H](O)[C@H]1O)Nc1ccccc1
6% | Clc1ccccc1-c1noc(-c2nc(-c3ccncc3)no2)n1
? | COc1ccc(C(=O)N2CCC(n3cc(-c4nc(C(C)C)no4)nn3)CC2)cc1F
5% | COc1cccc(O)c1C(=O)NC1CC(c2nnc(Cn3cccn3)n2C)C1 (centres undefined)
4% | Cc1nc([C@H]2CCN(Cc3ccccc3)C[C@H]2NC(=O)C2CCOCC2)n[nH]1
3% | CC(=O)NCCc1ncc(C)n1C1CCCCCCC1
-6% | CCNc1nccc(N2CCC(CC(=O)N(CC)CC)CC2)n1
1% | Cc1ccc(C2(O)CCN(C(=O)CCC3NC(=O)NC3=O)CC2)nc1 (centres undefined)
2% | O=C(NCCC1=CCCCC1)c1noc(-c2ccc[nH]c2=O)n1
4% | CCCCCCN(CCC(=O)NCc1ccco1)C(=O)c1ccoc1
? | O=C1COc2ccc(-c3cc4ccccc4o3)nc2CN1CCOc1ccccc1
? | CCOC(=O)C1=C(C)N(Cc2ccc(C(=O)N3CCCCC3)cc2)C(=O)CC1c1cccc(C)c1 (centres undefined)
5% | Cc1ccc(-c2nnc(C3CN(C(=O)c4ccccc4F)CC34CCOCC4)o2)cc1 (centres undefined)
-9% | Cc1ccc(C)c(NC(=O)N2c3ccccc3CC2c2nc(C3CC3)no2)c1 (centres undefined)

Carrying on:
NPR1 antag | mol
2%[70.6 µM] | Cc1cnc(NC(=O)c2ccc3c(c2)OCCN(CCC(F)(F)F)C3)s1
-23% | Cc1cccc(CN2CCCN(Cc3ccncc3)C(c3ccccc3)CC(=O)NCC2)c1 (centres undefined)
-4% | COc1ccccc1-c1ccnc(-n2ncc(C(=O)NCCc3cccnc3)c2C2CC2)n1
2% | O=C(CC1=C2CCCCC2N(Cc2ccccc2)C1=O)NC1CCS(=O)(=O)C1 (centres undefined)
3% | C[C@]1(CO)[C@H]2Cc3sc(NC(=O)C4CCCCC4)nc3[C@@H](CC(=O)NCc3cccnc3)[C@]2(C)CC[C@H]1O
2.8µM* | Cc1ccccc1SC1CCN(c2cc(C3CC(O)C3)ncn2)CC1 (centres undefined)
3% | CN1C(=O)CCC2(C(=O)O)CCCC=C12 (centres undefined)
? | COc1c(C)cccc1C(=O)N1CCC2(CCNCC2)CC1
-26% | COc1cccc(C(=O)N2CCN(c3cc(C(F)(F)F)nc(C)n3)CC2)c1OC
1% | COCc1ccc2c(c1)c(OC(C)(C)C(=O)Nc1cc(C)nn1C)nn2Cc1ccccc1
4% | Cc1nnnn1CCCN1CC[C@H]2NCCC[C@]2(C(=O)O)C1
0% | CS(=O)(=O)c1ccc(OC[C@H]2C[C@@H](NCc3ccc(F)cc3)[C@H](O)[C@@H]2O)cc1
? | O=[S+]([O-])(c1ccccc1)N1CCNc2cnc(Nc3cccc(F)c3)nc2C1
-4%[70.6 µM] | Cc1noc(C)c1-c1cc2cc(C(C)C)oc2c(-c2c(C)noc2C)n1
-28%[70.6 µM] | CS(=O)(=O)c1ccc(CN2CCN3C(=O)N(Cc4ccccc4)C[C@H]3C2)cc1
8% | Cc1ncc(-c2nc3cc(S(=O)(=O)NC(C)C)ccc3n2C(C)C)cn1
-1% | COC1CN(c2cccc(F)c2)C12CCN(C(=O)NC(C)(C)C)CC2 (centres undefined)
12% | CN1CCC(C2CCN(Cc3ccc(CCC(C)(C)O)cc3)CC2)CC1
-9% | CCC(=O)Nc1ccc2nnc(-c3ccc(C(=O)Nc4ccc(OC)cc4)cc3)n2c1
-14%[70.6 µM] | Clc1ccccc1CNC1(Cc2cc(-c3ccccc3)on2)COC1
0% | CN(CCc1cn[nH]c1)C(=O)C1CCN(C(=O)C2CCC2)CC1
4% | CCn1ccnc1CN(C)C(=O)c1cn(Cc2ccccc2F)nn1
5% | O=C(c1ccc2ccccc2n1)N1CCOC(C(F)(F)F)C1 (centres undefined)
16µM* | O=C(c1cccc(Cl)c1)N1CCCC(n2cc(-c3nc(-c4ccccc4)no3)nn2)C1 (centres undefined)
3% | CC1=C[C@@H](CNC(=O)CCC(=O)O)[C@H](C(C)C)C[C@H]1CC(=O)N1CCN(c2ccccn2)CC1
-1% | CCCNC(=O)NCC1Cn2cccc2CN1Cc1ccccc1 (centres undefined)
? | O=C(c1ccc(F)c(F)c1)N1CCN(c2cc(-c3ccc(Cl)cc3)[nH]n2)CC1
-2% | Cc1cccc(C(=O)N2C(C(=O)NCc3ccccc3)COC23CCC(C)CC3)c1 (centres undefined)
26%[70.6 µM] | O=C(NCc1ccc(Cl)nc1)c1cccn2nccc12
0% | OC1(CN2CCCCC2)CCN(Cc2cnn(-c3ccccc3Cl)c2)C1 (centres undefined)
1%[70.6 µM] | O=C(Nc1ccc([C@H]2OCC(=O)N(Cc3cccnc3)[C@@H]2CO)cc1)C1CCC1
0%[70.6 µM] | CC(=O)N1CC2(Cc3ccccc31)CN(C(=O)C1CCCC1)C2

Some of the entries so far, as a markdown table:
| mol | NPR1 antag |
| --- | --- |
| COC1CN(c2cccc(F)c2)C12CCN(C(=O)NC(C)(C)C)CC2 (centres undefined) | -1% |
| CN1CCC(C2CCN(Cc3ccc(CCC(C)(C)O)cc3)CC2)CC1 | 12% |
| CCC(=O)Nc1ccc2nnc(-c3ccc(C(=O)Nc4ccc(OC)cc4)cc3)n2c1 | -9% |
| Clc1ccccc1CNC1(Cc2cc(-c3ccccc3)on2)COC1 | -14%[70.6 µM] |
| CN(CCc1cn[nH]c1)C(=O)C1CCN(C(=O)C2CCC2)CC1 | 0% |
| CCn1ccnc1CN(C)C(=O)c1cn(Cc2ccccc2F)nn1 | 4% |
| O=C(c1ccc2ccccc2n1)N1CCOC(C(F)(F)F)C1 (centres undefined) | 5% |
| O=C(c1cccc(Cl)c1)N1CCCC(n2cc(-c3nc(-c4ccccc4)no3)nn2)C1 (centres undefined) | 16µM* |
| CC1=C[C@@H](CNC(=O)CCC(=O)O)[C@H](C(C)C)C[C@H]1CC(=O)N1CCN(c2ccccn2)CC1 | 3% |
| CCCNC(=O)NCC1Cn2cccc2CN1Cc1ccccc1 (centres undefined) | -1% |
| O=C(c1ccc(F)c(F)c1)N1CCN(c2cc(-c3ccc(Cl)cc3)[nH]n2)CC1 | ? |
| Cc1cccc(C(=O)N2C(C(=O)NCc3ccccc3)COC23CCC(C)CC3)c1 (centres undefined) | -2% |
| O=C(NCc1ccc(Cl)nc1)c1cccn2nccc12 | 26%[70.6 µM] |
| OC1(CN2CCCCC2)CCN(Cc2cnn(-c3ccccc3Cl)c2)C1 (centres undefined) | 0% |
| O=C(Nc1ccc([C@H]2OCC(=O)N(Cc3cccnc3)[C@@H]2CO)cc1)C1CCC1 | 1%[70.6 µM] |
